Screening results from PubChem BioAssay.
D2 potentiator: potentiates the human D2 dopamine receptor allosterically; P14416; potentiation, % (concentration not given with the values); actives 0.23% (n = 360,000); AID 624464; DiscoveRx D2 beta-arrestin cells, luminescence, 90 min; 100% = 57 uM dopamine signal; active = potentiation of 50% or more; inconclusive = 30% to 50%; inactive = 30% or less;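 also: compound concentration not given in the record; tested on top of an EC20 dose of dopamine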
Target sequence (P14416 whole entry, looked up): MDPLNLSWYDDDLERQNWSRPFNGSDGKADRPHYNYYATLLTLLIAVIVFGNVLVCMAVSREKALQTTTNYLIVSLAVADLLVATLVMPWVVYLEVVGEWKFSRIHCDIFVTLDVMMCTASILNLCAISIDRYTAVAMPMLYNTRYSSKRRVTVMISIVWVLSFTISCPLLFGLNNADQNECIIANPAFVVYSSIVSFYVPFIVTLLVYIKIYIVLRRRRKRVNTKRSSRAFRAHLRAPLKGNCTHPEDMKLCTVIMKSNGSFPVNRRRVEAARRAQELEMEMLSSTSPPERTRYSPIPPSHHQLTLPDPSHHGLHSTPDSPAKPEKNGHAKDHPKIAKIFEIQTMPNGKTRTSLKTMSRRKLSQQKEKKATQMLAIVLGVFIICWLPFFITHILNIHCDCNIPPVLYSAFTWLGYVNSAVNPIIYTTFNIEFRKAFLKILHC
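PathHunter beta-arrestin assay in DiscoveRx D2 cells. Compounds were added with an EC20 of dopamine (50 nM final) for 90 min at 37 deg C. Luminescence was read 1 h after detection reagent, with 57 uM dopamine as the EC100 control.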
gsp agonist: agonists of gsp mutant (McCune-Albright syndrome); actives 0.13% (n = 340,000); gsp mutant cells, cAMP HTRF, 30 min; control for the full effect not named in the record; Potency, µM (doses to about 76.9 µM), for the others: top-dose activation (cAMP increase), most hits filed as activators; AID 624287; active = well fitted activation curve with a large enough effect; inconclusive = small, poorly fitted or top-dose-only effect, or another doubt; inactive = no such curve, though single readings can be large or run the other way; cell line not stated here;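 also: phosphodiesterase inhibitor Ro 20-1724 added with compounds to block cAMP breakdown; potency is read from the fitted curve at half-maximal effect; nearly all actives have a fitted effect of over 60% in size; about a fifth of the inactives were tested at one dose only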
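Cells in DMEM/10% FBS with G418 were pretreated with compounds in DMSO plus […] (300 uM stock) for 30 min at 37C. cAMP was measured by HTRF (cAMP-d2 plus anti-cAMP antibody-K) after 30 min at room temperature.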
gsp antag: gsp mutant antagonism. gsp-mutant cells, cAMP HTRF, 30 min; control for the full effect not named in the record. Potency, µM (titrated, usually from 76.9 µM), for inactives: at the top dose activity change, negative = inhibition, hits mostly inhibitors. actives 0.4% (n = 340,000). AID 624288; active = falling curve of any shape with a large fitted effect; inconclusive = falling curve, mostly with a smaller effect; inactive = flat or rising curve; cell line not stated here;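 also: intracellular cAMP measured with PDE inhibitor Ro 20-1724 present during compound exposure; potency is read from the fitted curve at half-maximal effect; % is scaled to controls: 0 for no effect and ±100 for the full control effect; nearly all actives have a fitted effect of over 65% in size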
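G418-selected cells were plated in DMEM/10% FBS for 16-24 h at 37C, then treated with compounds plus the PDE inhibitor […] (300 uM solution added) for 30 min at 37C. Intracellular cAMP was measured by HTRF after 30 min lysis at room temperature.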
CtBP-E1A inh: inhibitors of CtBP/E1A interaction; AlphaScreen GST-E1A/His-CtBP binding, 1536-well; hits give low values; control for the full effect not named in the record; activity change, % (test concentration not listed); actives 0.49% (n = 340,000); in the data active means activity change below about -65%; inconclusive means about -30% to -65%; inactive means above about -30%; also: % is scaled to controls: 0 for no effect and ±100 for the full control effect; compound concentration not given in the record
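Protein mix (5X: 125 nM each GST-E1A, His-CtBP) was incubated with pinned compound 2 h at 37 deg C in dark, in 50 mM Tris pH 8.0 buffer with 300 mM NaCl. Glutathione donor and nickel acceptor beads followed; AlphaScreen signal read after 1 h.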
D2 ag: human D2 receptor agonism in beta-arrestin assay. DiscoveRx PathHunter D2 beta-arrestin, luminescence, 90 min; 100% = 57 uM dopamine signal. P14416. activation, % (test concentration not listed). actives 0.084% (n = 360,000); in the data active = activation above about 40%; inconclusive = about 15% to 40%; inactive = below about 15%; also: compound concentration not given in the record; the text of the record calls up to 30% inactive
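Agonist mode: compounds alone added to overnight-plated D2 PathHunter cells for 90 min at 37 C, with 57 uM final dopamine (EC100) defining full response. Beta-arrestin recruitment detected by chemiluminescent reagent, read after 1 h at ambient temperature.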
Six1-Eya2 inh: blocks human Six1 binding to Eya2; AID 651725; actives 0.56% (n = 360,000); Q15475+O00167; AlphaScreen GST-Six1/His-Eya2 binding, biochemical; hits give low values; control for the full effect not named in the record; activity change, % (concentration not given with the values); in the data active = activity change below about -65%; inconclusive = about -30% to -65%; inactive = above about -30%; also: % is scaled to controls: 0 for no effect and ±100 for the full control effect
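Homogeneous AlphaScreen proximity assay pairing GST-Six1 with His-tagged Eya2 (added as 5X mix: 250 nM and 500 nM) in 50 mM Tris pH 8.0, 300 mM NaCl, 1 mM TCEP. Glutathione donor and nickel acceptor beads; 1 h, 37 °C, dark.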
* marks the source's active call; other numbers are inactive results; ? = inconclusive; . = not tested or not shown; [ ] = dose if it differs, or a comment.

No. | Structure | D2 potentiator | gsp agonist | gsp antag | CtBP-E1A inh | D2 ag | Six1-Eya2 inh
1 | CCc1ccc(S(=O)(=O)NCc2cccs2)cc1 | -3 | -13%[15.4 µM] | 3% | 9 | -3.8 | -9
2 | O=C(c1cccc(F)c1)N1CCN(C(=O)c2cc(-c3ccc(Cl)cc3Cl)on2)CC1 | -5 | -12% | -27% | 45 | 0.6 | 10
3 | N#Cc1ccc(Oc2cc(C(F)(F)F)nc(-c3ccccn3)n2)cc1 | -2 | 1% | 12% | 4 | -1.2 | 3
4 | CCN(CC)S(=O)(=O)c1ccc(C(=O)NCc2ccc3[nH]c4c(c3c2)CCCC4)cc1 | -5 | -26% | 3% | -6 | -5.2 | 4
5 | CC(=O)c1cc2c(C)cc(=O)oc2cc1O | -12 | ? | 1% | 5 | -0.1 | -2
6 | COc1ccc2oc(=O)cc(-c3cc4cccc(OC)c4o3)c2c1 | -1 | 2% | -1% | 0 | -2.5 | 4
7 | COc1ccc(NC(=O)c2cc3n(n2)C(C(F)(F)F)CC(c2ccc4c(c2)OCO4)N3)cc1OC (stereo not given) | -3 | 29% | 3% | -8 | 1.1 | -5
8 | Cn1c(SCc2cc(=O)[nH]c(C(C)(C)C)n2)nnc1C(F)(F)F | 9 | -3% | 10% | . | 3.6 | 2
9 | N#CC1=C(N)NC(SCC(=O)c2ccc(Br)cc2)=C(C#N)C12CCCCC2 | -21 | 5% | ? | -10 | -2.0 | -5
10 | COc1ccccc1NS(=O)(=O)c1ccc(C(=O)N2CCN(c3ccccn3)CC2)cc1 | -15 | 5% | -14% | 0 | 0.8 | -5
11 | CCc1c(C)nc2c(C#N)c[nH]n2c1=O | 6 | -3% | -6% | -77* | 2.2 | ?
12 | CCOC(=O)C1CCCN(S(=O)(=O)c2ccc(OC)cc2)C1 (stereo not given) | -2 | 11% | 7% | -1 | -1.4 | -2
13 | Cc1ccc(NS(=O)(=O)c2cccc(C(=O)N3CCCC(C)C3)c2)cc1 (stereo not given) | 2 | -22% | -18% | -4 | 0.3 | 6
14 | CCOC(=O)/C=C/C(=O)Nc1ccccc1C(=O)NC1CCCCC1 | -27 | 6% | -3% | -8 | -4.1 | 1
15 | Cc1ccc(S(=O)(=O)N2C[C@H]3n4c(=O)ccc(=O)n4C[C@H](OC(=O)NCC4CCCCC4)[C@@]3(O)C2)cc1 | 4 | 20% | . | 0 | -9.1 | -1
16 | Cc1cc(C)c(CN2CCN(C(=O)Cn3cnc4c(NCc5ccccc5)ncnc43)CC2)c(C)c1 | -15 | . | ? | -8 | 1.5 | -16
17 | COc1ccc(CC(=O)Nc2nc(OCC(F)(F)F)cnc2-c2ccc(Cl)cc2Cl)cc1 | -2 | . | . | 6 | -2.9 | 0
18 | Cc1nn(Cc2cccc(C(=O)Nc3ccn(Cc4ccccc4F)n3)c2)c(C)c1[N+](=O)[O-] | 5 | -2% | -1% | 0 | 2.2 | -3
19 | Cc1ccc2oc(=O)c3cc(C(=O)NCCCN4CCCCCC4)sc3c2c1 | -31 | 16% | 6% | -18 | 4.7 | -4
20 | Cc1ccc(C(=O)NNC(=O)c2ccncc2)cc1S(=O)(=O)N1CCOCC1 | -3 | 14% | 11% | 14 | -3.7 | 3
21 | O=S(=O)(c1ccccc1)N1CCN(C(=S)NCCCN2CCOCC2)CC1 | -1 | -3%[15.4 µM] | -3% | -11 | -0.3 | -1
22 | Cc1cccc2c(=O)cc(C(F)(F)F)[nH]c12 | -5 | 12% | -21% | 6 | 1.9 | -2
23 | CCOC(=O)N1CCN(C(=O)CCCOc2ccccc2)CC1 | -10 | ? | 6% | 0 | -2.7 | -1
24 | CCNC(=O)CC1C(=O)N(c2ccccc2)C(=O)N1CCc1ccc(OC)cc1 (stereo not given) | -1 | -9% | 7% | 10 | -2.4 | 4
25 | COc1ccc(OC)c(-c2[nH]nc3c2C(c2ccco2)C(C#N)=C(N)O3)c1 (stereo not given) | -11 | -2% | 3% | -2 | 0.3 | -3
26 | Cc1nc2ccccc2n1CCN1CCOCC1 | -4 | 1% | 6% | 2 | -0.3 | 12
27 | O=C(CN(C(=O)CCC(=O)Nc1ccccn1)c1cccc(F)c1)NCc1ccco1 | -1 | 37% | 1% | 0 | 0.5 | 2
28 | CCc1sc(C(=O)N2CCN(c3ccc(F)cc3)CC2)cc1C | -8 | -10%[15.4 µM] | 3% | -1 | -1.7 | 0
29 | Cc1nc2c(-c3ccc(F)cc3)c(C)nn2c(C)c1CCC(=O)Nc1ccccc1 | 0 | -33% | ? | 1 | -0.7 | -2
30 | COc1ccccc1N1CCN(CCN2C(=O)C3CCCCN3C2=O)CC1 (stereo not given) | -30 | 5%[15.4 µM] | 16% | 6 | -1.1 | -14
31 | O=C(c1ccc(NS(=O)(=O)c2cccc3cccnc23)cc1)N1CCCCC1 | -1 | 26% | -3% | 5 | -3.7 | -3
32 | O=C(Nc1cccc(OC(F)(F)F)c1)C1Cc2c(-c3cccc(F)c3)ccnc2O1 (stereo not given) | -11 | . | . | -18 | -2.4 | 9
33 | C=C1c2ccccc2NC(=S)N1Cc1ccc2c(c1)OCO2 | -8 | -29%[15.4 µM] | -28% | . | -2.1 | -1
34 | CN1CCN(S(=O)(=O)c2ccc(NC(=O)Cc3cccs3)cc2)CC1 | -4 | -3% | 3% | -1 | -1.7 | -5
35 | Cc1ccc(-c2nnn(CC(=O)N(CC3CCCO3)C(C(=O)NC3CCCCC3)c3ccc(F)cc3)n2)o1 (stereo not given) | -5 | 10% | 0% | 5 | -1.4 | -1
36 | c1cnc2nc(-c3ccc4c(c3)OCO4)cn2c1 | 9 | 8%[15.4 µM] | -8% | 0 | -2.3 | 13
37 | Nc1nc(Cl)nc2ccc(Br)cc12 | -12 | -1% | -10% | . | -2.2 | -8
38 | CC(C(=O)O)C(=O)O | -1 | . | ? | -7 | -4.2 | 4
39 | COc1ccc(N2CCCn3c2nc2c3c(=O)n(Cc3ccccc3F)c(=O)n2C)c(OC)c1 | -4 | -17% | ? | -8 | -3.3 | -15
40 | O=[N+]([O-])c1ncccc1OCc1ccc(Cl)c(Cl)c1 | -3 | ? | -18% | -1 | 0.2 | -10
41 | CC(C)(C)NC1=NCCNC(c2ccccc2)=C1 | -21 | -31%[inhibitor] | . | 4 | -5.0 | -6
42 | Cc1noc(C)c1NC(=O)N(C)C[C@@H]1Oc2cc(Br)ccc2S(=O)(=O)N([C@H](C)CO)C[C@@H]1C | 1 | -99%[inhibitor] | . | 7 | -2.4 | -1
43 | Cc1ccc(NC(=O)C(CC(C)C)NC(N)=O)cc1 (stereo not given) | -7 | -14%[15.4 µM] | 11% | -5 | 0.1 | -3
44 | CSc1ncccc1C(=O)OCC(=O)N1CCN(C(=O)c2ccco2)CC1 | -3 | ? | 3% | . | -2.2 | 0
45 | O=C(Nc1ccc2ccccc2c1[N+](=O)[O-])c1ccccc1 | -10 | -3% | -9% | -16 | 2.6 | -27
46 | Cc1occc1-c1nnc(SCC(=O)N2CCCc3ccccc32)n1Cc1ccco1 | -10 | -6%[15.4 µM] | -14% | -1 | -6.1 | -2
47 | O=C(Nc1ccc(NC(=O)c2ccccc2)c2ccccc12)c1ccccc1 | -6 | -65%[inhibitor] | . | -8 | -6.5 | 0
48 | CCOc1ncccc1C(=O)OCc1c(F)cccc1Cl | -5 | -2%[15.4 µM] | . | 28 | 0.9 | 11
49 | CCOC(=O)C(C(=O)Cc1ccccc1)c1ccccc1 (stereo not given) | -7 | -1% | 3% | 23 | -2.0 | 20
50 | CCOc1ccc(CCNS(=O)(=O)c2ccc3c(c2)N(C(C)=O)CCO3)cc1OCC | -11 | 1% | -1% | . | -1.4 | 1
51 | O=C1C2C3C=CC(C2C(=O)N1c1nccs1)C1C(=O)N(c2nccs2)C(=O)C31 (stereo not given) | 7 | -16%[15.4 µM] | 12% | 13 | -4.9 | -1
52 | Cc1cc(OCc2cc(C(=O)N3CCN(C)C(=O)[C@@H]3C)no2)cc(C)c1Cl | -14 | 42% | -5% | -1 | -0.3 | -2
53 | CC(OC(=O)COc1ccc(Nc2ccccc2)cc1)C(=O)N(C)c1ccccc1 (stereo not given) | 3 | -5%[15.4 µM] | -13% | ? | 5.7 | ?
54 | CCOC(=O)c1ccccc1NC(=O)c1cccs1 | 11 | 0% | 1% | 12 | 0.2 | 22
55 | COc1ccc(N(CC(=O)N/N=C/c2ccc(-c3ccc([N+](=O)[O-])cc3)o2)S(=O)(=O)c2ccc(C)cc2)cc1Cl | -3 | 12% | 4% | 0 | -2.2 | -1
56 | COc1ccc(/C(N)=N/OC(=O)C2CCCCC2)cc1 | -5 | 19% | 7% | 25 | 0.1 | 16
57 | O=C(CC(c1ccccc1)c1cc(Br)ccc1O)N1CCCCC1 (stereo not given) | -1 | ? | -12% | -8 | -0.2 | 3
58 | CCOC(=O)C1=C(C)C(c2ccccc2OC)NC(=S)N1 (stereo not given) | -6 | -41%[inhibitor] | -4% | 9 | -2.9 | -3
59 | Cc1ccc2sc(N3CCN(C(=O)C4=COCCO4)CC3)nc2c1C | 1 | -56%[inhibitor] | -16% | -18 | 3.5 | 2
60 | O=C(CSc1nnc(CNC(=O)c2cccs2)o1)NCc1ccc(F)cc1 | 5 | ? | 10% | 8 | 0.8 | 7
61 | COc1ccc(C(=O)O)cc1S(=O)(=O)N1CCCc2ccccc21 | -9 | -5% | 4% | . | -5.1 | 5
62 | Cc1ccc2sc(N(CCCN(C)C)C(=O)c3ccc(S(=O)(=O)N4CCc5ccccc5C4)cc3)nc2c1C | -13 | 2%[15.4 µM] | -2% | -15 | -3.4 | 7

Some of these compounds in order of their number in CtBP-E1A inh, descending.
No. | Structure | D2 potentiator | gsp agonist | gsp antag | CtBP-E1A inh | D2 ag | Six1-Eya2 inh
48 | CCOc1ncccc1C(=O)OCc1c(F)cccc1Cl | -5 | -2%[15.4 µM] | . | 28 | 0.9 | 11
49 | CCOC(=O)C(C(=O)Cc1ccccc1)c1ccccc1 (stereo not given) | -7 | -1% | 3% | 23 | -2.0 | 20
58 | CCOC(=O)C1=C(C)C(c2ccccc2OC)NC(=S)N1 (stereo not given) | -6 | -41%[inhibitor] | -4% | 9 | -2.9 | -3
17 | COc1ccc(CC(=O)Nc2nc(OCC(F)(F)F)cnc2-c2ccc(Cl)cc2Cl)cc1 | -2 | . | . | 6 | -2.9 | 0
26 | Cc1nc2ccccc2n1CCN1CCOCC1 | -4 | 1% | 6% | 2 | -0.3 | 12
28 | CCc1sc(C(=O)N2CCN(c3ccc(F)cc3)CC2)cc1C | -8 | -10%[15.4 µM] | 3% | -1 | -1.7 | 0
39 | COc1ccc(N2CCCn3c2nc2c3c(=O)n(Cc3ccccc3F)c(=O)n2C)c(OC)c1 | -4 | -17% | ? | -8 | -3.3 | -15
